Mtb betalactam: beta-lactam sensitization of Mtb H37Rv, H37Rv | 0.27% of 330,000 active | inhibition, % at 25 µM | M. tuberculosis H37Rv growth with meropenem, percent inhibition; hits of this screen are not shown here;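 active = about 74% or more and at least 40 points above the plate without the antibiotic, then above 30% in a dose series; inconclusive = first-round hits that could not be retested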;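 note: growth measured after seven days incubation then overnight dye step; 0% = bacteria only wells and 100% = bacteria with antibiotic; twin plates without the antibiotic show which effects depend on it; some results filed as inactive read as strong as hits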
RecA splice inh: Mtb RecA intein splicing inhibitors, primary screen, biochemical, fluorescence, HTS. cell-free RecA intein splicing. inhibition, %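 (about 9 µM by stock and volumes)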. 0.75% of 290,000 active; in the data active = inhibition above about 30%; inconclusive = no clear call, values can overlap the other calls;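 note: 0% = vehicle wells and 100% = reference inhibitor control wells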
Target sequence (P9WHJ3 whole entry, looked up, canonical isoform): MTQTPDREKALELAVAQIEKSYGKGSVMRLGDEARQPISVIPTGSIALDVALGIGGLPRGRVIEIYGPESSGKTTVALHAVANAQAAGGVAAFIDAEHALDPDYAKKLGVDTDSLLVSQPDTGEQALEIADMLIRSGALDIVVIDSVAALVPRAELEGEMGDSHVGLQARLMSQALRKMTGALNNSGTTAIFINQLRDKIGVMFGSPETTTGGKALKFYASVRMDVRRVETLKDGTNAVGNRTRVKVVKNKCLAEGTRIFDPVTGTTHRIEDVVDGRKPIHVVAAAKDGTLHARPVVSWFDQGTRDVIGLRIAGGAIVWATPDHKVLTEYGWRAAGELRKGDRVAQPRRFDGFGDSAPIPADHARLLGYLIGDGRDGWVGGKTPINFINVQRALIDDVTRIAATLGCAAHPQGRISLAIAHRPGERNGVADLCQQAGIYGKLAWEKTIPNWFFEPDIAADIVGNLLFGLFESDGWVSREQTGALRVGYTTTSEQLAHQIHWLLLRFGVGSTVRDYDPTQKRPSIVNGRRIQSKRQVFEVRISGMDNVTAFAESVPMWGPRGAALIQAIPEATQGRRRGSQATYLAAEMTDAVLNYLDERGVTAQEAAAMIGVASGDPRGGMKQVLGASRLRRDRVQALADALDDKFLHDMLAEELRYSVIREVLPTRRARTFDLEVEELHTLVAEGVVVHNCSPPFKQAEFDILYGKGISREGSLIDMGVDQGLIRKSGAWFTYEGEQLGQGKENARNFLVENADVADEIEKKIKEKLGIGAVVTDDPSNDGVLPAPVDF
Arbovirus inh: antivirals against arbovirus infection, primary screen, cell-based, full library, 10K replicate subset. inhibition, % at 10 µM. AID 1251, 2008. 0.37% of 200,000 active. arbovirus infection cell-based antiviral screen;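 active = inhibition from about 30%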;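 note: bluetongue infection of BSR cells; cell survival read as ATP light after 72 h; 0% = infected wells without compound and 100% = uninfected wells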
YopH PTP inh: YopH tyrosine phosphatase inhibitors, primary screen, biochemical, fluorescence Ex485/Em525. YopH tyrosine phosphatase [Yersinia enterocolitica]. AID 898, 2007. inhibition, %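 (about 10 µM by stock and volumes)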. 0.16% of 140,000 active;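 active = inhibition of 50% or more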;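 note: controls were vehicle for no effect and minimum signal wells for full effect; inactives centre near -20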
Mtb growth: M. tuberculosis H37Rv growth inhibitors, H37Rv strain (AID 1626). M. tuberculosis H37Rv growth inhibition; higher % means a stronger effect. inhibition, % at 10 µM, or IC50 in µM where a hit was titrated. 0.95% of 220,000 active;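 active = confirmed in a dose series; inconclusive = inhibition above 80% but not taken into the dose series; inactive = below 80% or under 30% at every dose of the series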;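 note: bacteria incubated seven days before Alamar blue readout; 0% = bacteria only wells and 100% = bacteria with antibiotic wells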
Arbovirus inh repeat: second read-out of Arbovirus inh, no call of its own (marks repeat the call); inhibition, %; measured here: 10K subset replicate screen; many hits read low in the repeat;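 first of two repeat runs on a subset; 0% = infected and 100% = uninfected wells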
Active calls of the source: *; ? = inconclusive; / = no result given. An excerpt (hit frequency here may not be typical).

SMILES | Mtb betalactam | RecA splice inh | Arbovirus inh | YopH PTP inh | Mtb growth | others
Cc1ccc(/C=C2\SC(=S)N(/N=C/c3cc([N+](=O)[O-])ccc3O)C2=O)o1 | 6 | 6.3 | -3 | / | 4%
Cc1cccc(NC(=S)N2CCN(C(=O)C3CCCO3)CC2)c1 (centres undefined) | -2 | -2.4 | 3 | -30 | -3%
COc1ccccc1N1CCN(c2ncc(C(=O)N3CCN(c4cccc(Cl)c4)CC3)c3ccccc23)CC1 | 1 | 0.0 | 9 | / | 95%
COc1ccc(CCn2c(O)cc3nn(-c4nc5ccccc5s4)c(=O)c-3c2C)cc1 | 9 | 7.1 | / | / | 8%
CCOC(=O)C1(Cc2ccccc2C)CCCN(C(=O)c2ccccn2)C1 (centres undefined) | 0 | 1.0 | 2 | / | -4%
COc1ccccc1CC(=O)Nc1sc2c(c1C(N)=O)CCCC2 | 5 | -1.9 | / | / | /
Cc1onc(-c2ccccc2)c1C(=O)NCC1COc2ccccc2O1 (centres undefined) | -4 | 0.8 | -1 | -15 | -1%
COc1cccc(COC(=O)c2cc(=O)[nH]c3ccc(S(=O)(=O)N4CCOCC4)cc23)c1OC | -8 | -2.7 | / | / | /
CCCOCC1CC(CCc2nc(=S)[nH][nH]2)C(=O)O1 (centres undefined) | -8 | -1.2 | 3 | -24 | -9%
Cc1cc2cc(CNC(=O)C3CCCC3)ccc2n1C | 12 | 13 | 0 | / | 15% | Arbovirus inh repeat=-6
O=C1Nc2ccccc2N(O)N1c1ccc(S(=O)(=O)Nc2ccccn2)cc1 | -4 | -2.1 | 4 | / | -5%
COc1cc2c(cc1OC)CN(Cc1ccc(F)cc1)CC2 | 0 | -50 | / | / | /
O=C(NN=C1CCC(c2ccccc2)CC1)c1ccccc1-n1cccc1 (centres undefined) | 0 | -2.1 | 4 | -29 | -13%
Cc1ccc(Cl)cc1NS(=O)(=O)c1cc2[nH]c(=O)c(=O)[nH]c2cc1C | 3 | 1.9 | / | / | /
Cc1ccc(CN(C(=O)c2cc(=O)c3cc(C)cc(C)c3o2)C2CCS(=O)(=O)C2)cc1 (centres undefined) | -2 | 1.6 | / | / | 5%
COc1ccc(C2(CNC(=O)C(=O)Nc3ccc(C)cc3)CCOCC2)cc1 | -8 | -0.5 | -4 | / | 3%
COc1ccc(Cc2nnc(NC(=O)c3cccc(F)c3)s2)cc1OC | -6 | 1.1 | / | / | /
O=C1C2=C(NC(=S)NC2c2ccc(Cl)cc2)NC(c2ccc(Cl)cc2)N1c1ccc(Cl)cc1 (centres undefined) | -1 | 37* | -36 | -85 | -10%
CCCCNC(=O)O[C@H]1C[C@@H]2CCN3C(=O)CCC(C)(C)[C@H](C1)[C@H]23 | -7 | 1.7 | / | / | /
CCN(CC)S(=O)(=O)c1cc(C(=O)OC)ccc1Cl | -21 | -2.2 | 3 | -45 | -8%
Cc1noc(C)c1S(=O)(=O)N1CCC(C(=O)N2CCC(C)CC2)CC1 | -4 | 1.3 | 13 | -5 | -10%
O=C(NCCCCc1ccccc1)Nc1ccc(F)cc1F | -2 | -1.0 | / | / | /
Cc1ccc(NC(=O)c2ccc(C(C)(C)C)cc2)cc1[N+](=O)[O-] | 17 | 0.1 | -5 | -11 | 9%
CC(=O)c1ccc(N2CCN(Cc3nc(Cc4ccccc4)no3)CC2)cc1 | 38 | 3.1 | 0 | / | -1%
COc1cccc(NC(=O)CCC(=O)NCc2ccco2)c1 | -4 | 5.5 | 2 | 2 | -10%

The list goes on, overlapping the part above by 6 compounds.
SMILES | Mtb betalactam | RecA splice inh | Arbovirus inh | YopH PTP inh | Mtb growth | others
CCN(CC)S(=O)(=O)c1cc(C(=O)OC)ccc1Cl | -21 | -2.2 | 3 | -45 | -8%
Cc1noc(C)c1S(=O)(=O)N1CCC(C(=O)N2CCC(C)CC2)CC1 | -4 | 1.3 | 13 | -5 | -10%
O=C(NCCCCc1ccccc1)Nc1ccc(F)cc1F | -2 | -1.0 | / | / | /
Cc1ccc(NC(=O)c2ccc(C(C)(C)C)cc2)cc1[N+](=O)[O-] | 17 | 0.1 | -5 | -11 | 9%
CC(=O)c1ccc(N2CCN(Cc3nc(Cc4ccccc4)no3)CC2)cc1 | 38 | 3.1 | 0 | / | -1%
COc1cccc(NC(=O)CCC(=O)NCc2ccco2)c1 | -4 | 5.5 | 2 | 2 | -10%
CCCCCSc1nnc(C)c(=O)[nH]1 | 8 | 0.8 | 8 | -39 | -3%
CCCn1c(=O)c(-c2ccccc2)c(O)c2ccccc21 | 15 | 4.2 | 18 | -53 | -12%
FC(F)(F)c1ccc(Sc2nnc(-c3cccs3)n2CC2CCCO2)nc1 (centres undefined) | -5 | -0.6 | -3 | -96 | 4%
Cc1ccnc(NS(=O)(=O)c2ccc(N3C(=O)C4CCCCC4C3=O)cc2)n1 (centres undefined) | 10 | 4.8 | / | / | /
CCCn1c(=O)c(C(=O)NCCc2ccc(OC)cc2)c(O)c2ccccc21 | -2 | -0.3 | / | / | /
Oc1c(/C=N/Nc2cccc3cccnc23)ccc2ccccc12 | -4 | 3.9 | 14 | -24 | 5%
Cc1nn(C)cc1CN1CCCC(C(=O)c2ccc(-c3ccccc3)c(F)c2)C1 (centres undefined) | -4 | 0.6 | -10 | / | 13%
COc1ccccc1C(C)NC(=O)c1cc(=O)[nH]c2ccccc12 (centres undefined) | 0 | -0.6 | / | / | /
COc1ccccc1NC(NC(=O)c1ccco1)C(=O)c1ccccc1 (centres undefined) | 4 | -0.9 | 5 | -47 | -6%
CN(C)CCN(C(=O)/C=C/c1cccs1)c1nc2ccc(F)cc2s1 | -3 | -1.5 | 20 | -39 | 3%
COc1ccc(OC)c(-c2csc(NC(=O)Cc3ccccc3OC)n2)c1 | 93 | 13 | / | / | /
O=C1CC(NS(=O)(=O)c2cc(F)ccc2F)CN1c1ccc2c(c1)OCCO2 (centres undefined) | -2 | 0.9 | / | / | /
N#C/C(=C\c1cn(CCOc2ccccc2)c2ccccc12)C(=O)NCc1cccs1 | -5 | -5.7 | -12 | -22 | -5%
CN(CC(=O)Nc1ccc(Cl)c(C(F)(F)F)c1)C(=O)CC1Sc2ccccc2NC1=O (centres undefined) | 44 | -1.4 | / | / | /
O=C(N/C(=C\c1ccccc1)C(=O)N1CCN(CCO)CC1)c1ccccc1 | -7 | -1.7 | 9 | -22 | -7%
N#CC(C#N)=C/C(C#N)=C(/N)N1CCN(c2ccc(Cl)cc2)CC1 | -1 | -0.1 | 4 | -43 | 13%
CCN1CCSc2ccc(C(=O)NCc3ccccc3C)cc21 | 4 | -11 | / | / | /
Cc1cccc2nc(-c3ccco3)c(Nc3ccccc3)n12 | 2 | -0.3 | 5 | / | -8%
CCN(CC(=O)Nc1ccccc1OC)C(=O)/C=C/c1cccs1 | -8 | 1.3 | / | / | /
Cc1ccnc(NC(=O)c2cc(-c3ccc(Cl)s3)nc3ccccc23)c1 | -9 | -4.3 | / | / | /
c1ccc(-c2noc(C3CCC3)n2)nc1 | -9 | 1.7 | / | / | -2%
CCC(C)NC(=O)CN(c1cc(C)ccc1OC)S(C)(=O)=O (centres undefined) | -4 | 0.7 | 1 | -55 | -5%
CC1Sc2ccc(S(=O)(=O)N3CCC(C(=O)N4CCN(C)CC4)CC3)cc2NC1=O (centres undefined) | -8 | 0.9 | / | / | /
COC(=O)C1C(c2ccccc2)C(C(=O)N2CCOCC2)C1c1ccccc1 (centres undefined) | -2 | / | 3 | -36 | 3%
Cc1ccc(C(=O)Nc2cccc(C(F)(F)F)c2)cc1Nc1ncnc2nc[nH]c12 | 95 | 0.7 | / | / | 26%

Next part.
SMILES | Mtb betalactam | RecA splice inh | Arbovirus inh | YopH PTP inh | Mtb growth | others
CCCOc1ccc(C2=NNC(c3cccs3)=Nc3ccc(OC)cc32)cc1 | 92 | 6.2 | 2 | -26 | -3%
O=C(O)c1cc(-c2cccs2)nn1-c1ccc(F)cc1 | -2 | 2.2 | 0 | / | -1%
COc1ccc(OCCOc2ccc(C)nc2[N+](=O)[O-])cc1 | 5 | -1.3 | -1 | -9 | 9%
O=C(NNS(=O)(=O)c1ccc2ccccc2c1)c1cc(-c2ccccn2)nc2ccccc12 | 5 | 11 | 14 | -5 | 5%
COc1ccc(NC(=O)CSc2nc(N)c(NC(=O)c3ccccc3F)c(=O)[nH]2)cc1 | ? | 0.3 | / | / | /
Cc1ccc(NC(=S)Nc2ccc(S(=O)(=O)Nc3ncccn3)cc2)c(C)c1 | 4 | 1.8 | / | / | 0%
Cc1c(C=O)c2ccccn2c1C(=O)c1ccc(F)cc1 | 7 | -0.1 | / | / | /
Cc1ccc(CN2C(=O)C(C)(C)Oc3ccc(C(=O)N4CCCCC4)cc32)cc1 | 5 | 4.0 | -34 | -35 | 9%
O=C(NN1C(=O)/C(=C/c2ccc(O)cc2)SC1=S)c1cccc(O)c1 | 10 | 7.4 | / | / | /
C/C(=N/OCc1ccc(Br)cc1)c1ccccn1 | 6 | 4.9 | 2 | / | 2%
CC(=O)c1c(C)[nH]c(C(=O)CN2C(=O)NC(C)(c3ccc(C)cc3)C2=O)c1C (centres undefined) | -5 | / | 3 | / | 7%
O=C(CN1CCCCC1)Nc1cccc(Oc2ccccc2)c1 | 2 | -0.3 | -2 | -14 | 2%
COc1cc(/C=C(\NC(C)=O)C(=O)Nc2ccccc2C)ccc1OC(C)=O | -4 | -2.2 | 6 | -25 | 9%
C=CCc1ccc(OCC(O)COc2ccc(CC=C)cc2OC)c(OC)c1 | -3 | 2.7 | -32 | 9 | 2%
CCc1c(O)nc2ccccn2c1=O | 2 | -4.0 | -10 | -36 | -2%
Cc1c(CCOC(=O)c2cccc([N+](=O)[O-])c2)sc[n+]1CC(=O)c1ccccc1 | 0 | 0.2 | -5 | / | 0%
Clc1cccc(CSc2nnc(-c3cccnc3)n2Cc2ccco2)c1 | -6 | -1.4 | 8 | -34 | 10%
O=C(NC1=C(Nc2ccc(Cl)cc2)C(=O)c2ccccc2C1=O)c1ccccc1 | 3 | 49* | -13 | -9 | 6%
CCOC(=O)c1ccc(NC(=O)CSc2ccc(-c3cccnc3)nn2)cc1 | 89 | 5.3 | 5 | / | 29µM*
Cc1cccc(/C=N/n2c(COc3ccccc3)n[nH]c2=S)c1 | 1 | -0.5 | / | / | /
CCCCC(=O)NC(=S)Nc1ccc(Cl)c(C(=O)O)c1 | 0 | -0.1 | 0 | / | 8%
COc1cc(/C=C/c2cc(C(F)(F)F)[nH]c(=O)n2)cc(OC)c1OC | / | / | 27 | / | 75%
CC(=O)Nc1ccc(OCC[n+]2cccc(C(N)=O)c2)cc1 | -3 | -1.2 | 1 | / | -10%
CN1CCN(c2ccc(C(=O)c3ccc(Br)cc3)cc2[N+](=O)[O-])CC1 | 0 | 1.1 | -30 | / | 4%
CCCCc1ccc(NC(=O)N2CCNC(=O)C2CC(=O)Nc2ccsc2C(=O)OC)cc1 (centres undefined) | 27 | 3.9 | / | / | 7%

Additional entries:
SMILES | Mtb betalactam | RecA splice inh | Arbovirus inh | YopH PTP inh | Mtb growth | others
COc1ccc(-n2nnnc2-c2nc3ccccc3s2)cc1 | 7 | 1.8 | -3 | -5 | 9%
Cc1cccc(NC(=O)CN2CCN(C(=O)C3CCCO3)CC2)c1C (centres undefined) | -19 | -0.6 | / | / | /
Fc1ccccc1Nc1nc2ccccc2o1 | 0 | 0.6 | / | / | /
CCC(=O)Nc1cccc(-c2nc3ccc(C)cc3o2)c1 | 14 | 0.6 | / | / | /
Cc1ccc(C(=O)N/C(=C\c2ccco2)C(=O)NCCc2c[nH]c3ccccc23)cc1 | -8 | 4.4 | -3 | -5 | 9%
COc1ccc(/C=N/Nc2nc(C)c([N+](=O)[O-])c(N(C)c3ccccc3)n2)cc1OC | 5 | -0.5 | -1 | -36 | -5%
C=CCN(CC=C)C(=O)C1CCN(Cc2ccc(OCc3ccccc3)cc2)CC1 | 3 | 1.0 | / | / | /
CC1CCCN(C(=O)COC(=O)c2cccc(NS(=O)(=O)c3ccccc3)c2)C1 (centres undefined) | -10 | -3.5 | / | / | /
Cc1cc(C(=O)NC2CCCN(Cc3ccc(Cl)cc3)C2)n(C)n1 (centres undefined) | 5 | -0.2 | / | / | /
O=C(NCc1ccc(OC(F)(F)F)cc1)c1ccc2c(c1)S(=O)(=O)c1ccccc1C2=O | -5 | -0.2 | / | / | 1%
Cc1ccc(OCCOCCn2cnc3ccccc3c2=O)cc1C | -2 | -0.9 | 3 | / | 2%
COc1ccccc1NS(=O)(=O)c1cc(-c2cnc(C3CC3)o2)ccc1C | -1 | 1.5 | / | / | /

Fetched by compound from the entries so far:
SMILES | Mtb betalactam | RecA splice inh | Arbovirus inh | YopH PTP inh | Mtb growth | others
CC1CCCN(C(=O)COC(=O)c2cccc(NS(=O)(=O)c3ccccc3)c2)C1 (centres undefined) | -10 | -3.5 | / | / | /
CCC(=O)Nc1cccc(-c2nc3ccc(C)cc3o2)c1 | 14 | 0.6 | / | / | /

High-throughput results (PubChem BioAssay)
